# TAR Tat displ: TAR RNA-Tat peptide displacers, HIV-1, primary screen, biochemical, FRET, FAM/TAMRA-labeled Tat; 100,000 compounds, 0.6% hits; HIV-1 TAR RNA, Tat peptide displacement FRET; stronger effect = higher value; z-score (concentration not given with the values);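 also: score is relative to mean and SD of negative controls; some compounds called inactive have numbers as strong as hits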
# CDC25B-CDK2 inh: primary biochemical HTRF screen for blockers of M-phase inducer phosphatase 2 binding to CDK2/cyclin A | 94,000 compounds, 0.72% hits | z-score (test concentration not listed) | HTRF CDC25B-CDK2/CyclinA binding, anti-His/anti-Flag; stronger effect = higher value | AID 1259370, 2018;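 also: score is relative to mean and SD of negative controls; strong numbers were not always called active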
# * hit, by the source's call; x = no result given.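 The calls were made as follows: active = z-score from 3 up in half or more of its runs; inactive = the rest.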
# The line under a structure holds: CDC25B-CDK2 inh, TAR Tat displ
Cc1ccc(C2N(c3ccccc3)C(=O)N3CCCN23)cc1 (centres undefined)
→ x, 0.35
COc1cc(OC)c(NC(=O)N2CCSc3ccccc32)cc1Cl
→ x, 1
CC(C)Cn1cc(NC(=O)N2CCOCC2)c2ccccc2c1=O
→ x, 1.3
Cc1ccc(OC2CCS(=O)(=O)C2)cc1 (centres undefined)
→ -1.1, 2.7
COc1nc2c(C)cccc2cc1-c1noc(COc2ccccc2)n1
→ -0.93, 1.6
CCN(CC)S(=O)(=O)c1ccc2c(c1)CC(C(=O)NCCc1cnc[nH]1)N2C(C)=O (centres undefined)
→ x, 0.48
Cn1c(=O)n(C)c2cc(N3CCCCC3)c(NC(=O)NC3CCCC3)cc21
→ -1.2, 0.94
COc1ccc2cc(C#N)c(Nc3cccc(Cl)c3)nc2c1
→ -0.53, -0.73
NC(=O)c1ccccc1O
→ x, 2
O=C(NCCC1=CCCCC1)C(=O)c1c[nH]c2ccccc12
→ -1.5, x
CCCOC(=O)C(C)Oc1ccc2c(=O)c(Oc3ccccc3Cl)coc2c1 (centres undefined)
→ -2.5, x
O=C(c1cc2n(n1)C(C(F)(F)F)CC(c1ccc(F)cc1)N2)N1CCOCC1 (centres undefined)
→ -0.14, 2.3
O=C(NCc1ccc2c(c1)OCO2)c1csnn1
→ -1.2, 2.4
COc1cc(OC)c(NC(=O)CSc2nnc(C)n3c2cc2sccc23)cc1Cl
→ x, 2.8
Cc1cc(=O)n(CC(=O)N2CCCC2)c2c1c(C)nn2C
→ x, -0.66
CC1=C(CC(=O)O)c2cc(F)ccc2/C1=C\c1ccc(S(C)(=O)=O)cc1
→ 0.09, x
Cc1ccc(Cn2nc(Br)nc2Sc2ccccc2N)cc1
→ x, 1.4
CC1=C(C(=O)OCc2ccccc2)C(c2cccnc2)C2=C(CC(C)(C)CC2=O)N1 (centres undefined)
→ -0.89, 1.3
CN1C(=O)C(C)(C)c2cc(S(=O)(=O)NCC3CCN(CCc4cccs4)CC3)ccc21
→ x, -0.45
CCCCCN[C@H]1CS(=O)(=O)C[C@@H]1S(=O)(=O)c1ccc(C)cc1
→ -2, 1
O=C(NCCc1cccs1)C1CCCN(c2nnc(N3CCCC3=O)s2)C1 (centres undefined)
→ -2, 1.1
CC(C)c1ccc(-c2c(NCCc3ccccc3)c(=O)c2=O)cc1
→ x, -1.2
COc1ccc(-n2nc(C)c3c(C(F)(F)F)cc(-c4ccncc4)nc32)cc1
→ -0.12, -0.13
O=C(CSc1nc(-c2ccccc2F)nc2cc(=O)[nH]n12)N1CCc2ccccc21
→ x, -1.1
CCCCc1cnc2c(c1SCC(=O)Nc1nc(C)cs1)c(=O)n(C)c(=O)n2C
→ x, 0.68
CCN1CCN(CCNC(=O)c2c(N3CCCC3=O)c3cc(F)ccc3n2C)CC1
→ x, -1.2
OCCNC(=S)Nc1ccc2c(c1)OCO2
→ -2, x
Cc1ccc(S(=O)(=O)c2cnc3ccccc3c2N2CCCCC2)cc1
→ 1.2, 0.78
Oc1c(Cl)c(Cl)c(Cl)c2ccccc12
→ -1.3, x
CCOC(=O)c1c(NC(=O)c2cc(=O)c3c(C)cc(C)cc3o2)sc(C)c1C
→ -2.3, 0.58

# Retrieved by structure from the list above, six records:
# The line under a structure holds: CDC25B-CDK2 inh, TAR Tat displ
Cc1cc(=O)n(CC(=O)N2CCCC2)c2c1c(C)nn2C
→ x, -0.66
Cc1ccc(S(=O)(=O)c2cnc3ccccc3c2N2CCCCC2)cc1
→ 1.2, 0.78
CCN(CC)S(=O)(=O)c1ccc2c(c1)CC(C(=O)NCCc1cnc[nH]1)N2C(C)=O (centres undefined)
→ x, 0.48
CCCCc1cnc2c(c1SCC(=O)Nc1nc(C)cs1)c(=O)n(C)c(=O)n2C
→ x, 0.68
OCCNC(=S)Nc1ccc2c(c1)OCO2
→ -2, x
CC1=C(CC(=O)O)c2cc(F)ccc2/C1=C\c1ccc(S(C)(=O)=O)cc1
→ 0.09, x

# (listing goes on)
# The line under a structure holds: CDC25B-CDK2 inh, TAR Tat displ
O=C(NCCCN1CCOCC1)c1ccc2c(c1)NC(=O)C(N1CCOCC1)S2 (centres undefined)
→ -1, x
CCN(CC)C(=S)SCSC(=S)N(CC)CC
→ -1.4, x
O=S(=O)(Oc1cncc(Cl)c1)c1ccc(C(F)(F)F)cc1
→ -1.7, x
Cc1noc(C)c1C(=O)Nc1ccc(N2CCOCC2)nc1N1CCOCC1
→ -1.4, x
CCCSCCCNC(=O)Cn1nc(C)n2c(cc3sccc32)c1=O
→ -0.38, 0.08
Ic1ccc(I)s1
→ -0.1, x
Cc1ccc(Cl)cc1N1CCN(c2nc3ccccc3n3nnnc23)CC1
→ -0.31, -3.2
Cc1cccc(C)c1OCc1nc2c3cnn(-c4ccccc4)c3ncn2n1
→ 3.2, 0.14
CC1(C)CC(OC(=O)CCCCC(=O)OC2CC(C)(C)NC(C)(C)C2)CC(C)(C)N1
→ 0.14, 1.3
CC1CSc2ccc(S(=O)(=O)N(Cc3ccco3)C3CCCC3)cc2NC1=O (centres undefined)
→ x, 0.7
COc1ccccc1NC(=O)N1c2ccccc2NC2=C(C(=O)CCC2)C1c1cccs1 (centres undefined)
→ x, 2.6
CSc1nc(C)nc(N/C=C(\C#N)C(=O)c2ccccc2Cl)n1
→ -1.4, x
CCOc1c(C(C)=O)c(=O)[nH]c2scc(C)c12
→ -0.29, x
Cc1cc2nc(-c3cc(NC(=S)NC(=O)c4cccc(Cl)c4)ccc3O)oc2cc1C
→ -2.1, x
CCN(CC)c1ccc(N2CC(O)=C(c3nc4ccccc4c(=O)[nH]3)C2=N)cc1
→ -0.12, -4.3
Cc1cc(C(=O)N/N=C/c2cc(Br)c(O)c(Br)c2O)n[nH]1
→ -3.7, x
Cc1cc(C)n(-c2cc(O)c(-n3nc(C)cc3C)cc2O)n1
→ -0.9, 2.2
CSc1ccccc1NC(=O)c1cc2n(n1)C(C(F)(F)F)CC(c1ccco1)N2 (centres undefined)
→ -0.46, 0.62
O=C(c1c[nH]c(=O)n(-c2ccccc2)c1=O)N1CCc2ccccc21
→ x, 2.7
Nc1ccc(S(=O)(=O)Nc2nccs2)cc1
→ x, 2.7
O=C(CN1N=NC2C(=O)N(c3ccc(Br)cc3)C(=O)C21)Nc1ccc(Cl)cc1 (centres undefined)
→ x, -0.72
CC(C)Cn1cc(NC(=O)NCCc2c[nH]c3ccccc23)c2ccccc2c1=O
→ x, 1.5
COc1ccc(OC(=O)c2ccc3nsnc3c2)cc1
→ 1.2, 2
CC1=C(C(=O)NCCC2=CCCCC2)C2(CCN(S(=O)(=O)c3cccs3)CC2)OC1=O
→ x, -0.09
CCOc1ccc(C(Nc2ccccn2)c2ccc3ccc(C)nc3c2O)cc1OC (centres undefined)
→ -1.3, x
COc1ccc(CNc2nc(N(C)C)nc3c2cnn3C)cc1
→ x, 1.7
COc1ccc(OCc2nc3c4c(C)c(C)oc4ncn3n2)cc1
→ x, -1.8
CC(C)C12CN3CC(C(C)C)(CN(C1)C3c1ccc([N+](=O)[O-])o1)C2=O (centres undefined)
→ -1.3, 1.2
CSc1cccc(NC(=O)C2CCCN(c3cnc4ccccc4n3)C2)c1 (centres undefined)
→ x, 1.1
Clc1cccc(N2CCN(CCCNc3nc4ccccc4c4nc(-c5ccncc5)nn34)CC2)c1
→ -1.2, 1.2
Cc1cccc(OC(=O)CSc2nc(-c3ccccc3)nc3cc(=O)[nH]n23)c1
→ x, 0.41
O=S(=O)(c1ccc(Br)cc1)c1cccc(S(=O)(=O)N2CCCCC2)c1
→ -0.68, -0.19
CC(C)c1ccccc1OCc1nc2ccccc2[nH]1
→ -0.11, 1.6
O=C(CSc1nc2c(cnn2-c2ccc(F)cc2)c(=O)[nH]1)N1CCCC1
→ -0.81, x
CCCCCOC(=O)C1=C(C)Nc2nnnn2C1c1ccc(C)cc1 (centres undefined)
→ -0.61, 0.61
OC(CNCCNc1ccc(C(F)(F)F)cn1)COc1ccccc1 (centres undefined)
→ -0.93, x
CCOc1cc(-n2c(C)ccc2C)c(OCC)cc1N1CCOCC1
→ -2.7, x
O=C(NCc1cccs1)C1(NS(=O)(=O)c2cccc3cccnc23)CCCCC1
→ x, -0.12
N=C1/C(=C2/Nc3ccccc3S2)CC(=O)N1c1ccc(F)cc1F
→ 1.1, -5.9
Cc1nnc(SCc2cc(=O)c3c(=O)n(-c4ccccc4)[nH]c3[nH]2)s1
→ 1.5, 2.2
O=C(NN1C2CSC1CS2)c1ccco1
→ 0.41, x
O=c1c(NCc2ccc(F)cc2)nccn1-c1ccc(Br)cc1
→ x, -3.5
CC1CCCN(c2ncnc3c2oc2nc4c(cc23)COC(C)(C)C4)C1 (centres undefined)
→ x, -0.05
Cc1nnc(NC(=O)CSc2ccc3nnc(-c4cccc(F)c4)n3n2)s1
→ 0.16, x
Cc1ccccc1OCc1nc2ccccc2n1C
→ -0.64, 3.1
CCOC(=O)CSc1ccc2nnc(-c3cccc(F)c3)n2n1
→ -0.48, x
O=C(CCSc1ccc(C(F)(F)F)cc1)c1ccco1
→ -1, x
OB(O)c1ccc(Oc2ccc(B(O)O)cc2)cc1
→ 0.52, x
O=C1c2ccccc2C(=O)N1c1nccs1
→ -0.43, x
Cc1nn(C(C)C(=O)N2CCC(N3CCCCC3)CC2)c(=O)c2nn(-c3ccccc3)c(C)c12 (centres undefined)
→ x, 0.11
Cn1c(=O)c2cn3c(c2n(C)c1=O)C(c1ccco1)Nc1ccccc1-3 (centres undefined)
→ 1.5, 1.7
CCCc1nnc2sc(NC(=O)C(CC)Oc3ccccc3)nn12 (centres undefined)
→ -2, 0.69
Cc1cc(S(=O)(=O)NCc2c(N(C)C)cccc2N(C)C)c(Cl)cc1Cl
→ -0.97, x
CN1C(=O)c2ccccc2C(C(=O)Nc2ccc3c(c2)OCCO3)C1c1cccs1 (centres undefined)
→ -0.63, 0.14
O=C(O)CN(CC(=O)Nc1cccnc1)Cc1ccccc1
→ 0.75, x
CC(c1ccccc1)n1c(NCCCn2ccnc2)nc2c1c(=O)[nH]c(=O)n2C (centres undefined)
→ -3.8, 2.4
CCOC(=O)c1ccc2c(c1)NC(=O)c1ccccc1S2
→ -1.3, x
O=S(=O)(NCCn1cnc2ccccc21)c1cccc2nsnc12
→ x, 2.1
CCC(=O)c1ccc(-c2ccccc2F)cc1
→ -0.44, x
Cc1nc(N2CCC(C(=O)O)CC2)c2c(C)c(C)sc2n1
→ x, 4.8*

# In a second layout: entries from further up.
structure	CDC25B-CDK2 inh	TAR Tat displ
Cc1ccccc1OCc1nc2ccccc2n1C	-0.64	3.1
Nc1ccc(S(=O)(=O)Nc2nccs2)cc1	x	2.7
Ic1ccc(I)s1	-0.1	x
O=C(c1cc2n(n1)C(C(F)(F)F)CC(c1ccc(F)cc1)N2)N1CCOCC1 (centres undefined)	-0.14	2.3

# Additional compounds:
# The line under a structure holds: CDC25B-CDK2 inh, TAR Tat displ
Cc1cc(Cl)ccc1NS(=O)(=O)c1cc(-c2ccc(=O)[nH]n2)cc(C)c1C
→ x, 1.6
CCc1cc2c3c([nH]c2cc1S(=O)(=O)NCCN1CCOCC1)CCCC3=O
→ x, 2.5
CCN1CCN(c2ncnc3c2cnn3-c2ccc(C)cc2)CC1
→ x, -0.17
O=C(O)C1C2C=CC(O2)C1C(=O)NCc1ccncc1 (centres undefined)
→ -2.5, 2.7
CCN(CC)c1cc(C)nc2nc(-c3ccc(OC)cc3)nn12
→ -3.4, 1.4
O=[N+]([O-])c1ccc2c(c1)S(=O)(=O)CC2Sc1cccs1 (centres undefined)
→ -0.8, x
Brc1cccc(CNCCCSc2nnnn2-c2ccccc2)c1
→ -0.26, 0.44
CC1CCN(c2ccc3nnc(CCC(=O)NCC4CCCO4)n3n2)CC1 (centres undefined)
→ x, -0.78
CN1C(=O)NC(c2ccccc2Cl)C(C(=O)c2cccs2)C1(O)C(F)(F)F (centres undefined)
→ -0.58, x
Cn1c(=O)c2c(-c3ccccc3Br)n(-c3cccc(O)c3)cc2n(C)c1=O
→ -1.6, -0.85
Cc1c(C(=O)N2CCOCC2)sc2nc3n(c(=O)c12)CCCCC3
→ x, 2.5
CCOC(=O)N1CCN(C(=O)Nc2c[nH]c3ccc(C)cc3c2=O)CC1
→ -1.5, 3.1
COCCOC(=O)C1=C(C)NC2=C(C(=O)C(C(=O)OC)C(C)C2)C1c1cccc(F)c1 (centres undefined)
→ -1.8, -0.68
C=CCn1c(C2CC(=O)N(CC3CC3)C2)nc2ccccc21 (centres undefined)
→ -1.4, 0.5
COc1ccc(C(=O)O)cc1NC1(c2ccccc2)C(=O)c2ccccc2C1=O
→ x, -0.02
Cc1c(C(=O)N2CCCC2)c(S(=O)(=O)N2CCCCC2)c(C)n1C
→ x, 0.49
CC(=O)N1c2ccc(S(=O)(=O)NC(C(=O)NCc3cccs3)C(C)C)cc2CC1C (centres undefined)
→ x, -0.63
COCCNC(=O)Nc1ccc2sc(NS(=O)(=O)c3ccccc3)nc2c1
→ x, 2.6
O=C(Nc1ccc(O)cc1)c1cccc(-n2cnnc2)n1
→ x, 12*
O=C(CSc1nc2ccc([N+](=O)[O-])cc2s1)c1ccc(-c2ccccc2)cc1
→ -32, x
c1ccc(CN2CCC(Nc3ncnc4scc(-c5ccccc5)c34)CC2)cc1
→ -1.9, x
COc1cccc(OCCCn2c(CN3CCOCC3)nc3ccccc32)c1
→ -0.41, 0.95
S=c1[nH]c(-c2ccc3c(c2)OCO3)cn1-c1ccc(Br)cc1
→ -2.2, x
C=CCn1c(COc2ccc(Br)cc2)nnc1SCC(=O)c1ccc(OC)cc1
→ x, 0.14
COc1cc(NC(=O)CSC2=Nc3ccccc3C3=NC(C)C(=O)N23)cc(OC)c1 (centres undefined)
→ x, -0.37
O=C1COc2ccccc2N1O
→ -2.4, x
O=C(NCc1ccccc1Cl)Nc1ccc2snnc2c1
→ 9.6, -1.4
